FGF22 binding = FGF22 (human) thermal shift binding; calls only at 9.99 µM; 340,000 compounds, 1.5% hits; AID 651658; recombinant FGF22 thermal shift, SYPRO orange fluorescence; percent of sucrose octasulfate shift, DMSO zero; Q9HCT0;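 active = melting point raised past a set limit in the mean and every replicate; inconclusive = no clear call; three in four hits are not shown here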
Target sequence (Q9HCT0 whole entry, looked up): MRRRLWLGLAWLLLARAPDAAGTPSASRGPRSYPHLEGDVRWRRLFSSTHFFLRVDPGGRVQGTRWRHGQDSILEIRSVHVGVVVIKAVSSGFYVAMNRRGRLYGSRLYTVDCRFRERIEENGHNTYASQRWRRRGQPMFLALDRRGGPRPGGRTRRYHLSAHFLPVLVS
E coli growth = blocks Escherichia coli growth | OD600, 23 h; hits give low values | OD600 absorbance (test concentration not listed) | 330,000 compounds, 0.21% hits;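 active = OD600 absorbance below the run mean of sample wells minus 3.6 SD, in any replicate, cut at about 0.56 in these data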;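 note: stock transfer was 300 nL into about 60 µL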
Ecoli rRNA inh = inhibits bacterial ribosomal RNA function over humanized ribosomes | 350,000 compounds, 1.6% hits | E. coli WT GFP vs humanized-ribosome RFP mutants, fluorescence, 24 h; hits give low values; DMSO median 0, no signal -100 | GFP signal change (wild-type ribosome), % (no concentration beside the values) | AID 720706;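 active = significant combined selectivity score with lowered wild-type GFP, culture density cut under 30%, mutant RFP and density less affected; inactive = any of these conditions unmet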; note: one replicate is shown; some compounds called inactive have numbers as strong as hits
Vif TR-FRET = HIV-1 Vif–A3G interaction blockers – biochemical, TR-FRET, GST-Vif 1-94, biotin-A3G peptide, dose response retest, primary screen (AID 1117319) | 260,000 compounds, 0.57% hits | TR-FRET GST-Vif / biotin-A3G peptide binding; higher % means a stronger effect; test concentration not given here; strong numbers were not always called active | inhibition, %; hits with a dose series show IC50 in µM;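 active = above the screen mean plus three standard deviations and confirmed in dose response; inconclusive = results disagree or hit not tested in dose response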;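 note: Vif residues 1-94 fused to GST binding biotinylated APOBEC3G peptide 110-148; 0% = full assay without inhibitor and 100% = GST in place of GST-Vif; retest series ran down from 100 µM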
HNF4A DNA FP = change in binding of human HNF4 alpha to DNA; 360,000 compounds, 0.3% hits; AID 1224865; activity change, % at 10 µM; HNF4a-FITC DNA binding, fluorescence polarization, 1 h; P41235; in the data active = activity change above about 30%, passing the limit was not always enough;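 note: controls were the assay level and a saturating level of protein; the project sought stronger binding though the title names inhibitors; some compounds called inactive have numbers as strong as hits; positive values seem to mean higher polarization but the record does not say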
ALR H2O2 inh = inhibitors of human sulfhydryl oxidase ALR; P55789; purified ALR, DTT oxidation, H2O2 HRP-luminol luminescence; inhibition, % (concentration not given with the values); 290,000 compounds, 3.8% hits; AID 485317;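 active = mean and each replicate at 75% or more; inconclusive = only one of the two met; inactive = neither met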;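 note: stock transfer was 7.5 nL into about 7.5 µL; 0% = neutral wells and 100% = wells with inactivated enzyme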
Target sequence (P55789 whole entry, looked up): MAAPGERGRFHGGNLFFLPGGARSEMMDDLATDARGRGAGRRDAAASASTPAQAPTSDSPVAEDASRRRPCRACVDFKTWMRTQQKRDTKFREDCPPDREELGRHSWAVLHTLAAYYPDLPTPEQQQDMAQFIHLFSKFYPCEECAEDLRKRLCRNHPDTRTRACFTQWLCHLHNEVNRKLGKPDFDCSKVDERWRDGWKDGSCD
MLL AF4-AF9 inh = MLL-AF4/AF9 protein interaction inhibition; P42568; AlphaScreen, biotin-AF4 peptide binding to FLAG-AF9; inhibition, % at 10 µM; 350,000 compounds, 0.47% hits;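 active = every replicate reaching a set inhibition limit, whatever the replicate mean, cut at about 25% in these data; inconclusive = mean inhibition reaches that limit but some replicates miss it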;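 note: 0% = plate neutral control median and 100% = total signal loss; the record names both 10 and 1 µM as test concentration; the first replicate is given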
Target sequence (P42568 whole entry, looked up): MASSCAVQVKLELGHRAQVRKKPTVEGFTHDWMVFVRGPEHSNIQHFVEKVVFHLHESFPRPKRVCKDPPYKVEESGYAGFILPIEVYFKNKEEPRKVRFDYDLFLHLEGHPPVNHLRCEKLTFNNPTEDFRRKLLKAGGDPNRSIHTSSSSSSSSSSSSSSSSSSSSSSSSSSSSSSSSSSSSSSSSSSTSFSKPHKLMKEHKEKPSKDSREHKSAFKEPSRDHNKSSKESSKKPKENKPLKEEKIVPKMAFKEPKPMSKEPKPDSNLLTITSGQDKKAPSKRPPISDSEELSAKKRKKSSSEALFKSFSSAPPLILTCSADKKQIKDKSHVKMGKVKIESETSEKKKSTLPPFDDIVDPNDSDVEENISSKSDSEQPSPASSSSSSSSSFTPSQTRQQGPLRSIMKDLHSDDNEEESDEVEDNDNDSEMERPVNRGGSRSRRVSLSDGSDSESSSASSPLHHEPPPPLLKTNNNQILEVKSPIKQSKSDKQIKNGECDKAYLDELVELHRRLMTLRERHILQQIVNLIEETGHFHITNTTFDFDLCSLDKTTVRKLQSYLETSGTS
Ecoli rRNA inh OD600 = further read-out of Ecoli rRNA inh, marked with its call; OD600 change, %; measured here: OD600 growth;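 optical density of the mix in the first replicate; 0 = DMSO median and -100 = no signal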
Ecoli rRNA inh RFP = further read-out of Ecoli rRNA inh, marked with its call; RFP signal change, %; measured here: RFP humanized mutant strains;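 first replicate; 0 = DMSO median and -100 = no signal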
* hit, by the source's call; i = inactive; ? = inconclusive; · = not tested or not shown; + = active, no number. These rows are one share of the data; count on the stated rates, not on these rows.

FGF22 binding,E coli growth,Ecoli rRNA inh,Ecoli rRNA inh OD600,Ecoli rRNA inh RFP,Vif TR-FRET,HNF4A DNA FP,ALR H2O2 inh,MLL AF4-AF9 inh,SMILES
i,0.691,11.0,3.1,-0.3,-40.2%,1.1,-11.8,-0.6,Cc1ccc(C)c(OCc2nnc(NC(=O)c3ccc4c(c3)OCO4)s2)c1
·,0.668,·,·,·,5.0%,2.3,97.8*,·,Cc1ccc(Sc2nc(-c3ccccc3)nnc2C(F)(F)F)cc1
i,0.657,6.4,-0.1,-2.1,0.3%,-2.0,-1.2,-0.4,COc1ccccc1C(=O)NC(=O)COC(=O)CNC(=O)c1ccc(Cl)cc1Cl
i,0.642,-16.1,-29.3,30.1,-2.8%,-0.3,-4.0,2.1,CCc1ccc(-c2cc(C(=O)N3N=C(C(F)F)CC3(O)C(F)F)c3ccccc3n2)cc1 (stereo not drawn)
·,0.691,·,·,·,4.6%,-0.4,-0.8,·,COC(=O)C1=C(NC(=O)C(C)(C)C)CCS1
i,·,2.7,11.1,2.7,-1.7%,-5.0,32.3,·,COC(=O)N/N=C/c1ccc(OC(=O)c2ccco2)c(OC)c1
·,0.627,·,·,·,-1.1%,3.0,-8.8,·,Cc1ccc(NC(=O)COC(=O)Cn2c(C)csc2=O)cc1
i,0.626,-39.2,-57.5,1.0,5.9%,-1.3,27.7,-0.3,O=C(CCc1ccccc1)N1CCN(c2ccc([N+](=O)[O-])cc2)CC1

The listing continues.
FGF22 binding,E coli growth,Ecoli rRNA inh,Ecoli rRNA inh OD600,Ecoli rRNA inh RFP,Vif TR-FRET,HNF4A DNA FP,ALR H2O2 inh,MLL AF4-AF9 inh,SMILES
i,0.687,11.1,7.0,-1.1,-3.7%,4.1,-3.9,2.9,CCCCN(C)C(=O)c1nc2ccccn2c1CN1CCSCC1
·,0.689,-16.5,-12.5,-1.1,2.1%,0.3,-1.1,1.9,CCCCN=C1NN=C(c2ccc(C)c(C)c2)CS1
i,·,0.4,3.0,-2.6,·,·,·,-2.6,Cc1noc(C)c1NC(=O)Nc1ccc2c(c1)C(=O)N([C@H](C)CO)C[C@@H](C)[C@@H](CN(C)Cc1ccc(C(=O)O)cc1)O2
·,0.68,10.8,5.0,3.5,·,3.2,-4.9,-1.1,Cc1cccc(N2CC(O)(c3cccs3)[N+]3=C2CCCCC3)c1 (stereo not drawn)
i,0.676,-3.7,-20.5,-1.6,·,2.6,-2.2,0.8,O=C(NCCOc1ccccc1)C1CCC(=O)N(CCc2ccc(Cl)cc2)C1 (stereo not drawn)
i,0.655,15.7,11.7,1.1,?,1.9,1.6,-5.0,CC(=O)Nc1ccc(NC(=O)Nc2cccc(C)c2C)cc1
i,0.675,2.1,0.5,-1.8,-11.2%,-0.1,3.5,2.2,CC(=O)c1sc(NC(=O)c2ccc(F)c(S(=O)(=O)N3CCOCC3)c2)nc1C
+,·,6.9,7.4,-1.0,·,1.6,-2.5,·,C#CCOCCOCCOCCNc1nc(N2CCOCC2)nc(N2CCN(C(=O)[C@H](CCCN=C(N)N)n3cc(C(N)[C@@H](C)CC)nn3)CC2)n1 (stereo partly drawn)

Further structures:
FGF22 binding,E coli growth,Ecoli rRNA inh,Ecoli rRNA inh OD600,Ecoli rRNA inh RFP,Vif TR-FRET,HNF4A DNA FP,ALR H2O2 inh,MLL AF4-AF9 inh,SMILES
i,0.675,-11.9,-4.8,1.5,-6.6%,-1.2,·,-7.5,COC(=O)C1=CN(Cc2ccccc2)C=C(C(=O)OC)C1c1cc(F)ccc1F
i,0.705,7.2,10.6,0.5,·,-0.9,4.8,-1.0,O=C(CCC(=O)NC1CCCCC1)Nc1cccnc1
i,0.644,4.6,10.6,-1.9,·,2.6,-10.2,7.6,Cc1ccc(-c2csc3ncnc(N4CCN(Cc5ccccc5)CC4)c23)cc1
·,0.698,·,·,·,5.0%,-5.5,-9.0,·,O=C(CS(=O)(=O)Cc1ccccc1)Nc1cccnc1
i,0.659,14.6,4.7,3.6,11.3%,0.7,30.7,-2.3,COC(=O)C1C(=O)C2=C(CC1C)Nc1ccccc1NC2c1cccs1 (stereo not drawn)
i,0.729,9.2,-0.7,2.5,·,3.5,-3.1,0.9,Cc1cc(C)cc(NC(=O)c2cnn(-c3ccccc3)c2C2CCNCC2)c1
·,0.704,·,·,·,-1.0%,-9.5,-35.0,·,COc1ccc(-n2c(SCC(=O)N3CCCCC3C)nnc2-c2cccnc2)cc1 (stereo not drawn)
i,0.681,-59.5,-78.2,-16.8,·,-1.3,1.2,0.9,CN(CC(=O)NC(=O)NC1CCCCC1)CC(=O)Nc1ccc(Cl)cc1

Next section:
FGF22 binding,E coli growth,Ecoli rRNA inh,Ecoli rRNA inh OD600,Ecoli rRNA inh RFP,Vif TR-FRET,HNF4A DNA FP,ALR H2O2 inh,MLL AF4-AF9 inh,SMILES
i,0.735,-11.3,-44.0,-2.2,·,-4.3,-3.6,3.6,Cc1nc(N2CCCCC2)c2c(C)c(C(=O)Nc3ccc4c(c3)OCCO4)sc2n1
i,0.653,-0.8,-1.9,-1.2,-10.2%,-3.5,-2.8,-0.1,CCOc1ccc(S(=O)(=O)N2CCN(C(=O)c3cc([N+](=O)[O-])ccc3N3CCOCC3)CC2)cc1
·,0.701,·,·,·,29.5%,1.4,1.7,·,Cc1noc(C)c1CSc1nc2[nH]ncc2c(=O)n1-c1ccccc1
i,0.672,-22.1,-25.5,-4.0,·,5.0,-1.8,-0.6,O=C(CCNC(=O)c1ccccc1Cl)Nc1ccc(Br)c(C(F)(F)F)c1
i,·,3.1,-6.8,-1.2,·,·,·,1.1,C[C@H]1CN([C@@H](C)CO)C(=O)Cc2cc(NC(=O)Nc3ccc4c(c3)OCO4)ccc2O[C@@H]1CN(C)C(=O)Nc1cccc2ccccc12
i,0.663,0.4,-1.4,6.7,·,2.0,·,0.7,O=C(c1cccc(S(=O)(=O)N2CCCC2)c1)N1CCN(S(=O)(=O)c2cccc(Cl)c2)CC1
·,0.707,-7.4,-18.7,-2.9,-34.1%,3.9,94.8*,-4.4,COc1ccc(Br)cc1-c1nc(CCl)cs1
·,0.734,·,·,·,-2.6%,-2.2,·,·,Cn1c(SCCOc2cccc(Cl)c2)nnc1-c1ccncc1

Part of the list above, bar-delimited:
SMILES | FGF22 binding | E coli growth | Ecoli rRNA inh | Ecoli rRNA inh OD600 | Ecoli rRNA inh RFP | Vif TR-FRET | HNF4A DNA FP | ALR H2O2 inh | MLL AF4-AF9 inh
C[C@H]1CN([C@@H](C)CO)C(=O)Cc2cc(NC(=O)Nc3ccc4c(c3)OCO4)ccc2O[C@@H]1CN(C)C(=O)Nc1cccc2ccccc12 | i | · | 3.1 | -6.8 | -1.2 | · | · | · | 1.1
Cc1nc(N2CCCCC2)c2c(C)c(C(=O)Nc3ccc4c(c3)OCCO4)sc2n1 | i | 0.735 | -11.3 | -44.0 | -2.2 | · | -4.3 | -3.6 | 3.6

(continued)
FGF22 binding,E coli growth,Ecoli rRNA inh,Ecoli rRNA inh OD600,Ecoli rRNA inh RFP,Vif TR-FRET,HNF4A DNA FP,ALR H2O2 inh,MLL AF4-AF9 inh,SMILES
·,·,1.6,-1.8,-0.2,8.4%,-1.1,-8.5,·,Cc1cccc(OC(C)c2ccnc3nc(/N=C/N(C)C)nn23)c1 (stereo not drawn)
·,0.723,·,·,·,-2.5%,-3.4,-11.3,·,CN1C(=O)C(O)(CC(=O)c2cccc(-n3cccc3)c2)c2ccccc21 (stereo not drawn)
i,0.711,-1.1,-0.5,-1.8,·,2.5,·,2.3,COc1ccccc1C(=O)C1CCCN(C(=O)c2ccccc2C(C)=O)C1 (stereo not drawn)
i,0.704,-43.7,-64.6,-20.4,·,-2.7,·,-3.2,COc1cccc(CN(C)C(=O)c2cc(COc3ccc4ncccc4c3)on2)c1
i,0.69,-3.8,4.1,-2.1,·,4.0,-8.0,-0.3,CN(C)S(=O)(=O)c1ccc(C(=O)Nc2ccn(C)n2)cc1
i,·,-8.1,-16.9,-3.2,-13.7%,6.3,-4.1,1.1,CC(C)(C)C(=O)/C=C/c1ccc(Oc2ccccc2)cc1
i,·,3.0,9.0,2.9,·,-1.9,·,-4.9,CN(Cc1ccccc1)C(=O)[C@@H]1CCCN1C(=O)[C@@H]1CCCN1C(=O)OC(C)(C)C
·,0.809,·,·,·,·,0.4,1.2,·,CCOc1ccc(-c2nc3c(s2)CCc2onc(-c4ccc(OC)cc4)c2-3)cc1

Later entries.
FGF22 binding,E coli growth,Ecoli rRNA inh,Ecoli rRNA inh OD600,Ecoli rRNA inh RFP,Vif TR-FRET,HNF4A DNA FP,ALR H2O2 inh,MLL AF4-AF9 inh,SMILES
i,0.691,-44.1,-65.5,-16.7,·,-1.1,·,7.6,CN(Cc1ccccc1)S(=O)(=O)c1ccccc1Br
i,0.673,4.6,2.3,1.2,·,3.5,-4.9,-2.0,CCOC(=O)c1sc(NC(=O)CCc2ccc(OC)cc2)nc1C
·,0.671,7.0,19.5,10.2,7.1%,-0.9,-4.3,-17.3,N#CCc1nc(-c2cc3ccccc3oc2=O)cs1
i,0.701,8.1,9.1,0.6,-0.8%,4.6,1.0,2.8,COc1cc(C(=O)N2CCCN(C)CC2)cc(OC)c1C
i,0.663,4.2,11.2,-1.6,·,-1.6,2.4,-2.2,Cc1cc(=O)n2nc(N3CCC(C(=O)NCc4ccco4)CC3)sc2n1
i,·,2.1,5.4,1.5,·,·,·,23.8,COc1ccc2c3c([nH]c2c1)[C@@H](CO)N(Cc1cccc(F)c1)CC31CN(CC2CC2)C1
i,0.713,15.4,12.1,0.4,-6.6%,1.5,49.7,0.9,CC(c1ccccc1)N1CCN(C(=O)CCl)CC1 (stereo not drawn)
i,·,0.4,10.9,-2.4,·,·,·,-0.8,C[C@@H]1CN([C@H](C)CO)C(=O)c2cccc(NC(=O)c3ccncc3)c2O[C@H]1CN(C)C(=O)Nc1cccc2ccccc12

New compounds follow.
FGF22 binding,E coli growth,Ecoli rRNA inh,Ecoli rRNA inh OD600,Ecoli rRNA inh RFP,Vif TR-FRET,HNF4A DNA FP,ALR H2O2 inh,MLL AF4-AF9 inh,SMILES
i,0.703,9.2,8.0,-7.0,5.4%,-0.8,·,6.7,Cc1ccc(CN2CCN(Cc3ccc(OCCO)cc3)CC2CCO)o1 (stereo not drawn)
i,·,1.7,-1.1,0.9,0.4%,0.7,·,4.7,CCN(CC(=O)Nc1ccc(OC)cc1)C(=O)C1CC(=O)N(Cc2ccccc2)C1 (stereo not drawn)
i,·,2.9,9.1,0.5,·,·,·,-0.8,CCCNC(=O)N[C@H]1CC[C@H](CC(=O)NC2CCC2)O[C@H]1CO
i,0.663,1.1,2.6,4.8,-2.6%,-0.8,-7.0,3.5,CCC(=O)c1ccc(OCC(=O)Nc2cc(S(=O)(=O)N3CCCCC3)ccc2N2CCN(CC)CC2)cc1
i,0.712,·,·,·,-4.7%,2.2,-13.1,-1.3,CC(=O)N1CCc2ccc(NC(=O)c3c(-c4c(Cl)cccc4Cl)noc3C)cc21
i,·,-8.8,-42.7,24.1,·,·,·,-1.8,N#C[C@@H]1[C@H](c2ccc(C#CCC3CCCC3)cc2)[C@H](CO)N1C(=O)c1ccccn1
i,·,1.3,4.2,0.3,·,-1.8,7.1,0.7,COc1ccc(NC(=O)C/C(C)=N/NC(=O)c2ccccn2)c(OC)c1
i,0.659,3.5,-0.4,3.6,5.3%,2.2,-3.5,-4.3,CC(=O)[C@@H]1[C@@H](C(=O)c2ccc(F)cc2)[C@]2(C(=O)Nc3ccccc32)[C@H]2C=Cc3cc(F)ccc3N12
i,0.711,1.2,11.8,0.6,-0.9%,-2.1,-17.4,-18.5,O=C(CSc1nnc(CNC(=O)c2ccccc2)o1)NCc1ccc(F)cc1

Assay outcomes from PubChem BioAssay.
